Screening results: PubChem BioAssay, Broad Institute
rRNA inh HTS: inhibitors of bacterial rRNA selective over humanized ribosomes; E. coli WT GFP vs humanized-ribosome RFP mutants, fluorescence, 24 h; active compounds read low; DMSO median 0, no signal -100; GFP signal change (wild-type ribosome), % (test concentration not listed); 350,000 tested, 1.6% active;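 active = significant combined selectivity score with lowered wild-type GFP, culture density cut under 30%, mutant RFP and density less affected; inactive = any of these conditions unmet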; note: one replicate is shown; some compounds called inactive have numbers as strong as hits
RanGTP-Impb inh: inhibitors of RanGTP-importin-beta interaction, primary screen, biochemical, FRET, CFP-Ran, YFP-importin-beta, homogeneous; cell-free CFP-Ran/YFP-importin-beta FRET ratio; inhibition, % (concentration not given with the values); 300,000 tested, 1.1% active; AID 2216;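 active = most replicates above 15%; inconclusive = exactly half above 15%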;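 note: 0% = DMSO wells and 100% = Ran loaded with GDP instead of GTP; wells of about 40 µL received 100 nL stock; the first replicate is given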
ALR H2O2 inh: blocks human ALR sulfhydryl oxidase activity. purified ALR, DTT oxidation, H2O2 HRP-luminol luminescence. P55789. 290,000 tested, 3.8% active. inhibition, % (test concentration not listed);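 active = mean and each replicate at 75% or more; inconclusive = only one of the two met; inactive = neither met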;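 note: stock transfer was 7.5 nL into about 7.5 µL; 0% = neutral wells and 100% = wells with inactivated enzyme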
Target sequence (P55789 whole entry, looked up): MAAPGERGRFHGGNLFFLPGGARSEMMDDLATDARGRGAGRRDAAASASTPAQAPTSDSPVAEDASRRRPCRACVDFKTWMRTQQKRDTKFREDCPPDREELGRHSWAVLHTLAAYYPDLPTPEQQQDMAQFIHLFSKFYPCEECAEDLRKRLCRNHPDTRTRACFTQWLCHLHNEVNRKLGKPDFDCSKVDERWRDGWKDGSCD
T cruzi repl: blocks replication of Trypanosoma cruzi; T. cruzi beta-gal in NIH3T3, luminescence, 90 h; inhibition, % (test concentration not listed); 300,000 tested, 1.4% active; AID 1885;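 active = mean inhibition across valid replicates above about 55%, limit read from the data; inconclusive = mean below that limit but half or more replicates reach it; inactive = mean below it, under half of replicates reach it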;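 note: signal also drops with host cell toxicity which is not excluded here; 0% = plate median of DMSO wells and 100% = zero luminescence signal; higher percent means less beta-gal luminescence so fewer parasites; stock transfer was 50 nL into about 50 µL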
Calb FLC: C. albicans growth modulation with fluconazole; C. albicans CaCi-2 (fluconazole-resistant clinical isolate) + fluconazole, Alamar Blue growth, 48 h; growth inhibition, % (no concentration beside the values); 300,000 tested, 0.57% active;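 active = most replicates above 75%; inconclusive = exactly half above 75%; inactive = most below 75%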;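 note: all wells also contain fluconazole at 8 µg/ml as a sub-toxic cotreatment; 0% = median of DMSO wells and 100% = median of geldanamycin control wells; wells of about 8 µL received 7.5 nL stock; the first replicate is given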
Beta cell apopt: blocks beta cell apoptosis | INS-1E cytokine-induced death, ATP luminescence, 48 h; percent of positive-control rescue, neutral wells zero | protection from apoptosis, % (test concentration not listed) | 300,000 tested, 0.8% active | AID 435005;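 active = all replicates at 75% or more, or half of them and the mean; inconclusive = half reach 75% but not the mean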;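 note: 0% = cytokine-treated negative control wells and 100% = positive control rescue; higher means more ATP so stronger rescue from cytokine killing; wells of about 40 µL received 100 nL stock; the first replicate is given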
AF4-AF9 inh: inhibitors of human MLL-AF4/AF9 interaction; P42568; 350,000 tested, 0.47% active; AlphaScreen, biotin-AF4 peptide binding to FLAG-AF9; inhibition, % at 10 µM;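 active = every replicate reaching a set inhibition limit, whatever the replicate mean, cut at about 25% in these data; inconclusive = mean inhibition reaches that limit but some replicates miss it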;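 note: 0% = plate neutral control median and 100% = total signal loss; the record names both 10 and 1 µM as test concentration; the first replicate is given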
Target sequence (P42568 whole entry, looked up): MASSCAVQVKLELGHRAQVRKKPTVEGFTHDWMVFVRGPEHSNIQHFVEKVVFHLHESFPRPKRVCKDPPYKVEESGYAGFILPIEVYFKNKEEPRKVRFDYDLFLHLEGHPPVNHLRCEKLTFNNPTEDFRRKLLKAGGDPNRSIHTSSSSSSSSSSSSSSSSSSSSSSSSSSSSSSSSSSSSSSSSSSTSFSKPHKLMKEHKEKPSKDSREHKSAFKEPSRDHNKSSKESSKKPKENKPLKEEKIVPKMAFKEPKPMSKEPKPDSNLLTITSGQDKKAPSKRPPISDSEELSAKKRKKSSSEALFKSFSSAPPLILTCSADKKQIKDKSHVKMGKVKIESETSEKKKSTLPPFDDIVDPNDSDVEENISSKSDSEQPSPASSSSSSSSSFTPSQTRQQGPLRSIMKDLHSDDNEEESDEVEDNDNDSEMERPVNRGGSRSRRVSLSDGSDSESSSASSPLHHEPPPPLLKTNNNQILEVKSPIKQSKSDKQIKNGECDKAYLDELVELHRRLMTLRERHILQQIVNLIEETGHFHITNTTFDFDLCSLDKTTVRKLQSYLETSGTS
FGF22 binding: shifts melting point of recombinant human FGF22 | Q9HCT0 | 340,000 tested, 1.5% active | calls only at 9.99 µM | recombinant FGF22 thermal shift, SYPRO orange fluorescence; percent of sucrose octasulfate shift, DMSO zero;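 active = melting point raised past a set limit in the mean and every replicate; inconclusive = no clear call; three in four hits are not shown here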
Target sequence (Q9HCT0 whole entry, looked up): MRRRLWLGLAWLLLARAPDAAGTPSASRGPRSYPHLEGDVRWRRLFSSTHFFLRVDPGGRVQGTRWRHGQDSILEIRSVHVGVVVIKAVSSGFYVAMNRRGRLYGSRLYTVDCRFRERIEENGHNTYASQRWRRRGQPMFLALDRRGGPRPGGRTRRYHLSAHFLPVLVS
rRNA inh HTS OD600: second read-out of rRNA inh HTS, no call of its own (marks repeat the call); OD600 change, %; measured here: OD600 growth;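 optical density of the mix in the first replicate; 0 = DMSO median and -100 = no signal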
rRNA inh HTS RFP: also measured in rRNA inh HTS; calls as there; RFP signal change, %; measured here: RFP humanized mutant strains;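 first replicate; 0 = DMSO median and -100 = no signal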
Starred values were filed as active, the others as inactive; i = inactive; u = inconclusive; x = no result given. These rows are one share of the data; count on the stated rates, not on these rows.

SMILES	rRNA inh HTS	rRNA inh HTS OD600	rRNA inh HTS RFP	RanGTP-Impb inh	ALR H2O2 inh	T cruzi repl	Calb FLC	Beta cell apopt	AF4-AF9 inh	FGF22 binding
O=C(Nc1ccc(S(=O)(=O)Nc2nccs2)cc1)c1cccc(S(=O)(=O)N2CCOCC2)c1	7	4	1.9	2.7	-1	0	-12	-8	-1.5	i
Cc1onc(-c2c(F)cccc2Cl)c1-c1nnc(-c2cccc3ccccc23)o1	10	8	0.1	5.3	9	-2	27	-5	-2.3	i
CC12CN(C(=O)c3ccc(Cl)cc3)C3(C#N)CC1CCC23C (stereo not given)	x	x	x	-1.6	-2	-6	u	-5	x	x
CCOC(=O)Cn1c(CN2CCOCC2)nc2c1c(=O)n(C)c(=O)n2C	4	15	-2.2	-3.7	14	3	3	-2	-5.5	i
CC(OC(=O)C1CCN(S(=O)(=O)c2ccc(C(C)(C)C)cc2)CC1)C(=O)N1CCOCC1 (stereo not given)	3	-7	0.4	4.4	-9	6	-4	-1	-0.7	i
CC1=NN(C(=S)Nc2ccccc2)C(C)(C)C1	18	11	-2.9	3.4	13	-17	8	-4	-0.7	i
O=C(NC1CCC(O)CC1)c1cc(Cl)c2c(c1)OCCO2 (stereo not given)	6	3	1.3	x	-21	x	x	1	-1.6	i
Cc1ncccc1C(=O)N1CCCC(CCC(=O)N2CCN(c3ccccn3)CC2)C1 (stereo not given)	7	7	-1.4	1.9	-1	10	0	-5	-1.1	i
O=C(CN1C(=O)CSc2ccc(S(=O)(=O)N3CCOCC3)cc21)N1CCCCC1	11	14	0.3	62*	-8	-19	0	-2	-12	i
Cc1ccc(NC(=O)C2CC(=O)N(Cc3ccccc3)C2)nc1 (stereo not given)	-3	6	-0.4	1.6	x	-10	1	-13	5.7	i

Reformatted with two lines to a compound: 2 of the compounds above
Every second line gives: rRNA inh HTS | rRNA inh HTS OD600 | rRNA inh HTS RFP | RanGTP-Impb inh | ALR H2O2 inh | T cruzi repl | Calb FLC | Beta cell apopt | AF4-AF9 inh | FGF22 binding
- O=C(Nc1ccc(S(=O)(=O)Nc2nccs2)cc1)c1cccc(S(=O)(=O)N2CCOCC2)c1
 : 7 | 4 | 1.9 | 2.7 | -1 | 0 | -12 | -8 | -1.5 | i
- Cc1onc(-c2c(F)cccc2Cl)c1-c1nnc(-c2cccc3ccccc23)o1
 : 10 | 8 | 0.1 | 5.3 | 9 | -2 | 27 | -5 | -2.3 | i

(continued)
SMILES	rRNA inh HTS	rRNA inh HTS OD600	rRNA inh HTS RFP	RanGTP-Impb inh	ALR H2O2 inh	T cruzi repl	Calb FLC	Beta cell apopt	AF4-AF9 inh	FGF22 binding
O=C1CC(c2ccc(S(=O)(=O)NCc3ccccc3)cc2)CN1 (stereo not given)	5	8	-0.9	-0.6	x	-8	1	1	-3.6	i
CCCCn1nnnc1NCc1cccs1	8	4	1.6	-2.8	-18	-4	-5	-17	0.3	i
CCOC(=O)C1CCCCN1Cc1ccc(F)cc1 (stereo not given)	7	-6	6.1	-0.8	1	-9	8	-2	-23	i
Cc1ccc(/C=N/Nc2nc(C(C)(C)C)cs2)o1	5	2	-1.8	2.7	2	24	-14	-3	6.3	i
CC(C(=O)NCc1ccc(Cl)cc1)n1cccc1C(=O)c1ccccc1 (stereo not given)	-42	-65	-7.5	2.0	0	10	1	-6	-1.1	i
Cc1cc(C)cc(NC(=S)N2CCN(c3ncc(C(F)(F)F)cc3Cl)CC2)c1	12	7	0.4	1.3	-1	2	6	-3	-0.2	x
O=C(COC(=O)CNS(=O)(=O)c1ccccc1)Nc1ccc(Cl)cn1	x	x	x	-3.6	-1	2	2	-6	x	x
CCCn1c(=N)c(S(=O)(=O)c2ccccc2)cc2c(=O)n3cccc(C)c3nc21	2	0	0.5	145*	-2	32	-4	2	-8.3	i
CN(C)CCNc1ncnc2ccccc12	7	8	-4.5	0.6	-26	-7	6	-1	x	x
O=C(CCSCCc1ccccn1)Nc1cccc([N+](=O)[O-])c1	4	-9	5.2	-2.3	-24	-10	-7	2	-0.5	i
CCn1ccnc1CNC(=O)c1ccc2oc(CCCc3ccccc3)nc2c1	-6	-14	-1.4	-2.9	0	3	3	0	8.2	i
Cc1ccc(S(=O)(=O)N2CCOCC2)cc1NC(=O)COC(=O)c1cc(=O)c2ccccc2o1	x	x	x	2.5	-4	-19	-7	-18	x	x
CCN(CC)CCN1C(=O)C(=O)/C(=C(/O)c2ccccc2)C1c1ccccc1F (stereo not given)	x	x	x	-0.4	18	-11	-11	-4	x	x
Cc1c(C(=O)N2CCC(Cc3ccccc3)CC2)sc2ncnc(N3CCC(C)CC3)c12	5	0	-2.5	-2.5	-4	72*	1	-3	-8.1	i
CC(C)(CO)NCc1ccccc1OCC(=O)Nc1ccccc1	x	x	x	3.5	2	5	-5	-4	x	x
CCc1ccc(NC(=S)NCc2cccnc2)cc1	-18	-16	-4.0	-0.9	-2	-2	4	-5	-18	i
C=CCNc1nc(C(=O)OCC(=O)c2ccc(F)cc2)cs1	3	3	-0.6	-2.6	-5	-3	1	x	-1.3	i
CC(C)c1ccc(NC(=O)C2CCCCC2C(=O)O)cc1 (stereo not given)	x	x	x	1.9	-5	-10	-7	-8	x	x
CCN(CC)CCN1C(=O)c2ccccc2NC1c1cc(OC)c(OC)c(OC)c1 (stereo not given)	4	1	-4.3	6.4	-1	-18	9	-7	6.2	i
O=C(NCCS(=O)(=O)N1CCN(c2ccccc2)CC1)c1cccc(F)c1	5	7	0.4	-3.5	1	-9	-2	4	-22	i
CCOC(=O)C1CCCN(S(=O)(=O)c2cc3c(cc2Cl)NC(=O)CO3)C1 (stereo not given)	-5	-6	0.0	-0.8	-9	-8	-1	-4	-5.1	i
O=C(OCC(=O)N1CCN(C(=O)c2ccco2)CC1)c1ccccc1NCCO	1	0	-1.4	u	-2	-4	4	-1	0.0	i
Nc1nnc(SCC(=O)NNC(=O)c2ccc(F)cc2)s1	3	6	1.5	x	3	x	x	1	-0.5	i
CCOC(=O)c1c(NC(=O)CSc2ncn[nH]2)sc(C(=O)N(C)C)c1C	2	1	-1.8	0.7	-1	-1	13	5	-1.7	i
CC(C)N(C(=O)CSc1nnc(NC(=O)Cc2cccs2)s1)C(C)C	4	14	3.1	-2.9	3	0	-8	-4	-1.4	i
CC(=O)c1cccc(N(CC(=O)Nc2cccnc2)S(C)(=O)=O)c1	9	-4	1.5	-0.8	1	-19	-10	-2	-7.7	i
Nc1cccc(S(=O)(=O)Nc2ccc(SC(F)F)cc2)c1	-19	-16	7.7	-4.8	-17	-1	0	-7	5.7	i
CCC1=NN2C(=N)/C(=C/c3ccc(OS(=O)(=O)c4ccc(C)cc4)c(OC)c3)C(=O)N=C2S1	x	x	x	-0.6	20	14	-5	0	2.2	i
CC(C)COc1ccc(C(=O)Nc2ccc(NC(=O)c3ccco3)c(Cl)c2)cc1	x	x	x	3.3	18	-11	-1	10	x	x
COc1cc(C)c(S(=O)(=O)NCc2cccnc2)cc1C	6	2	1.5	12	2	-16	11	0	-5.0	i
Cc1cc(=O)[nH]c(SCc2nc3ccc([N+](=O)[O-])cc3[nH]2)n1	5	2	-2.6	-2.4	-12	-12	-9	-3	0.9	i
COc1ccc(C(C)=O)cc1CSc1nncn1-c1ccccc1	12	8	0.6	13	-2	6	0	-1	3.7	i
C=CCSc1nc2sc3c(c2c(=O)n1CC)CCc1ccccc1-3	x	x	x	x	-20	15	8	-1	x	x
Cc1ccc(C(=O)N(CN2CCCC2=O)c2ccccc2)cc1C	x	x	x	2.9	-10	11	-4	2	x	x
COc1ccc(/C=C/C(=O)OCC(=O)NC(C)CCc2ccccc2)cc1 (stereo not given)	3	1	1.9	x	x	x	x	0	-39	i
CC1CN(C(=S)NC(=O)C2CCCCC2)CC(C)O1 (stereo not given)	x	x	x	6.2	29	-12	0	1	-0.3	i
COc1cc(Br)cc(/C=C/c2ccc3cccc(O)c3n2)c1O	3	4	3.5	5.9	-10	34	-2	34	0.6	i
CCOC(=O)c1cc2c(n(-c3ccccc3)c1=O)CC(C)(C)CC2=O	x	x	x	6.4	2	5	-17	-7	x	x
COc1cc(/C=N\Nc2nc3ccccc3o2)cc(OC)c1OC	x	x	x	1.5	-25	0	29	6	x	x
Cc1ccc(Cn2ccc(O)c(Cc3ccccc3)c2=O)cc1	19	18	2.3	2.3	5	2	1	2	-2.2	i
N#CC1=C(Nc2ccccc2)SC=C(c2ccc(Br)cc2)N=C1N1CCOCC1	x	x	x	-8.6	-7	9	3	0	x	x
COc1cc([C@@H]2CC=C(C(=O)O)[C@H](c3cccc(Cl)c3)N2S(=O)(=O)c2ccc(C)cc2)cc(OC)c1OC	-20	-12	-2.3	x	4	x	x	4	1.5	i
O=C(COC(=O)c1cc(-c2ccccc2)nc2ccccc12)Nc1ccc2c(c1)OCO2	9	4	-0.9	1.1	-4	-1	-21	-1	-0.1	i
COc1ccc(-c2[nH]c(-c3ccc(C)cc3)nc2SCC(=O)NC2CCCC2)cc1	x	x	x	-3.1	31	18	2	36	u	i
O=C(Oc1ccccc1-c1nnco1)c1ccccc1	x	x	x	2.2	-6	-12	10	8	x	x
Cc1cc(C)cc(OCC(=O)NC2CCCc3ccccc32)c1 (stereo not given)	x	x	x	-0.8	x	17	-11	3	x	x
COC(=O)C1=C(C)N(c2ccccc2)/C(=C/c2ccco2)C1=O	2	8	5.4	-1.2	-25	1	18	2	1.3	i
Cc1ccc(C(=O)CC(=O)c2cc(Cl)ccc2O)cc1	x	x	x	4.8	-1	-9	27	6	x	x
Cc1ccc(NC(=O)C(C)OC(=O)CCNS(=O)(=O)c2ccc(C)cc2)cc1 (stereo not given)	-1	9	-2.0	3.6	-1	6	-7	-18	-16	i
Cc1onc(-c2c(F)cccc2Cl)c1C(=O)N(C)CCc1ccccn1	7	7	2.6	1.5	0	3	9	-3	-3.5	i

Additional results follow.
SMILES	rRNA inh HTS	rRNA inh HTS OD600	rRNA inh HTS RFP	RanGTP-Impb inh	ALR H2O2 inh	T cruzi repl	Calb FLC	Beta cell apopt	AF4-AF9 inh	FGF22 binding
Cc1nnc(C)n1/N=C/c1ccc(-c2ccccc2Cl)o1	-2	-5	-1.2	4.0	x	-6	12	5	5.2	i
Cn1c(=O)c2c(ncn2CCC(=O)N/N=C/c2ccccc2)n(C)c1=O	4	2	-1.3	-0.6	1	-9	3	-4	-4.3	i
CC1C(=O)NN=C1C(=O)N/N=C\C(Br)=C\c1ccccc1 (stereo not given)	20	18	7.4	u	x	-35	-19	x	0.0	i
NS(=O)(=O)c1ccc(CCNC(=O)C(=O)C2C(=O)Nc3ccccc32)cc1 (stereo not given)	4	1	-6.5	-6.8	27	-4	-11	-1	-6.8	i
Cc1ncc(CN2CCC(C(=O)Nc3ccc(Oc4cccnc4)cc3)CC2)cn1	21	10	7.2	4.1	-6	16	-4	-7	1.5	i
O=C(CS(=O)(=O)c1cn(Cc2ccccc2Cl)c2ccccc12)N1CCOCC1	x	x	x	7.1	-16	1	-15	0	x	x
